# Screens (PubChem)
# Rango complex inh: Rango-importin beta binding inhibition; Q14974; Rango CFP/YFP FRET sensor + importin beta, 45 min; Potency, µM (titrated, usually from 92.2 µM), inactives show at the top dose inhibition of complex formation; 340,000 tested, 0.031% active; active = rising FRET ratio curve, often small or poorly fitted; inconclusive = mostly compound fluorescence or quenching in the first reads; inactive = flat curves in all reads;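 further: potency means the concentration at half of the fitted maximal effect; 0% = DMSO wells and 100% = buffer wells lacking importin beta; nearly all actives have a fitted effect of over 15% in size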
# Target sequence (Q14974 whole entry, looked up): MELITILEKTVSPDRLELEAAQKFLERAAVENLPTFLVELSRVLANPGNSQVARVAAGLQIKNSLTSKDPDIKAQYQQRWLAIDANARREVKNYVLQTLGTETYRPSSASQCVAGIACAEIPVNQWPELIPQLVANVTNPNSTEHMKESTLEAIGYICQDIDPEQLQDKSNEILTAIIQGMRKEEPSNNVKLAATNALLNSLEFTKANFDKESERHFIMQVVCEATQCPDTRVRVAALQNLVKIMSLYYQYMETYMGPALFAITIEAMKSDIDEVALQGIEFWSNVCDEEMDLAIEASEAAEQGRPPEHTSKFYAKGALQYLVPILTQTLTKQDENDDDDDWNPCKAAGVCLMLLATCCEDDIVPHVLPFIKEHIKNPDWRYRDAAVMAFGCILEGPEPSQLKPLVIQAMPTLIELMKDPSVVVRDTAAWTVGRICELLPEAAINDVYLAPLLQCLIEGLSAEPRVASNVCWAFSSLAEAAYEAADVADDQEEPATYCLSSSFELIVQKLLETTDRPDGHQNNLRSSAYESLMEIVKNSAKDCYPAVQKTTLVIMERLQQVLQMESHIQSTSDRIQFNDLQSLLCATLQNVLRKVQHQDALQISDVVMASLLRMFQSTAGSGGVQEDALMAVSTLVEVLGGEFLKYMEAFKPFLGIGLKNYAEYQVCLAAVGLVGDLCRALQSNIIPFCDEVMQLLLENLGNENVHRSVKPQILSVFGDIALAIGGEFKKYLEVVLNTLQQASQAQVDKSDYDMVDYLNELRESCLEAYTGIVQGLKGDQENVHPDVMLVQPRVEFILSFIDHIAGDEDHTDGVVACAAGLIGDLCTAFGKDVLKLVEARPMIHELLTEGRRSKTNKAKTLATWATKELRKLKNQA
#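 Inhibition scored from the CFP 486 nm/YFP 530 nm FRET ratio 45 min after adding 0.125 microM importin beta to 50 nM Rango biosensor preincubated 5 min with compound (room temperature, PBS with DTT, Tween-20, BSA). No-importin wells as positive control.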
# miR-21 reporter: miR-21 reporter, rising signal | HeLa miR-21 FLuc reporter, luciferase, 48 h | Potency, µM (titrated, usually from 38.3 µM), without a hit: at the highest dose reporter change, positive = more light | 340,000 tested, under 10 active; active = well fitted rising curve with a large enough effect; inconclusive = small, poorly fitted or top-dose-only effect; inactive = no such curve, though single readings can be large or run the other way;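 further: % of control where 0% means no effect; miR-21 action dims this reporter so a rising signal means less miR-21 action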
#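 HeLa cells stably expressing CMV-driven firefly luciferase with a downstream miR-21 binding sequence, endogenously expressing miR-21, were treated with titrations (up to about 40uM final) for 48 hours at 37 degree Celsius. Luciferase luminescence was read after lysis.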
# Rango release inh: prevents RanGTP from dissociating the Rango-importin beta complex | O95149+P62826 | Biochemical FRET Rango-importin beta, RanGTP-induced dissociation | Potency, µM (doses to about 46.1 µM), for inactives: at the top dose activity change, negative = inhibition | 340,000 tested, 0.071% active; active means falling FRET ratio curve, often poorly fitted, with flat reads before Ran was added; inconclusive means other falling curves, or compound fluorescence or quenching; inactive means flat or rising ratio curve;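 further: potency means the concentration at half of the fitted maximal effect; % of control where 0% means no effect; nearly all actives have a fitted effect of over 45% in size; -100% = wells without RanGTP and RCC1; the record marks most hits as doubtful in a second field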
#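 Compounds preincubate 5 min with complex of recombinant Rango and importin beta in PBS with 1 mM DTT. Ran (0.6 uM) loaded with 2 mM GTP plus 0.2 uM RCC1 starts dissociation; FRET is recorded 45 min later.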
# GLA inh pH 4.5: alpha-galactosidase A (human) inhibition, pH 4.5; purified enzyme, 4-MU-alpha-Gal fluorescence, pH 4.5; AID 1467; 230,000 tested, under 10 active; activity change, negative = inhibition, % at 105 µM; P06280; inconclusive = small, poorly fitted or top-dose-only inhibition, or a rising curve; inactive = flat fitted curve, though single readings scatter; no compound was filed as active;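 further: 0% = full activity with enzyme and -100% = basal without enzyme; dose as in the result columns while the protocol names 77 µM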
# Starred values were filed as active, the others as inactive; u = inconclusive; x = not tested or not shown; & = joins results of further samples. A portion of the library (hit frequency here may not be typical).
# Preview:
Rango complex inh,miR-21 reporter,Rango release inh,GLA inh pH 4.5,Compound
5.0%,x,-18%,x,CC(C)Cc1nnc(NC(=O)c2ccc(N3CCCC3=O)cc2)s1
0.6%,x,3%,x,Cc1ccc(-n2cnc3c(=O)[nH]cnc32)cc1

# All compounds of this part (from the top)
Rango complex inh,miR-21 reporter,Rango release inh,GLA inh pH 4.5,Compound
5.0%,x,-18%,x,CC(C)Cc1nnc(NC(=O)c2ccc(N3CCCC3=O)cc2)s1
0.6%,x,3%,x,Cc1ccc(-n2cnc3c(=O)[nH]cnc32)cc1
-0.4%,-4%,-9%,-23,COc1ccccc1C/C(N)=N/OC(=O)COc1cc(C)cc(C)c1C
9.2%,23%,-3%,x,O=C(c1ccc(CS(=O)c2cccc(Cl)c2)o1)N1CCN(c2ccccn2)CC1 (stereo not drawn)
-0.9%,0%,-6%,x,Cc1ccc(C)c(S(=O)(=O)N2CCCOC2CNC(=O)C(=O)NC2CCCC2)c1 (stereo not drawn)
-2.7%,-1%,1%,-17,O=C(CN1C(=O)COc2ccccc21)NCc1ccc(C(=O)O)cc1
3.7%,-31%,12%,-6,C=CCNc1ncnc2c1cnn2-c1ccc(OC)cc1
-5.1%,-1%,-1%,-5,COC(=O)[C@@]1(Cc2ccc(F)cc2)[C@H]2c3cc(C(=O)N(C)C)n(C[C@H](O)CO)c3C[C@H]2CN1C(=O)c1ccccc1
5.3%,-7%,-8%,-2,O=C(NCc1ccncc1)C(=O)N/N=C/c1ccc(OCc2ccccc2)cc1
-0.9%,-4%,-1%,9,NC(=O)C1(N2CCCCC2)CCN(C2CC(=O)N(Cc3cccs3)C2=O)CC1 (stereo not drawn)
-14%,-8%,5%,-7,CCc1ccc(C(N)=S)cc1
-3.3%,x,-2%,x,CC(C)C[C@@H](CN1C(N)=NC[C@@H]1C)NC(=O)CC12CC3CC(CC(C3)C1)C2
-1.9%,3%,45%,x,COc1ccc(CCNC(=O)CSCc2ccc(Br)cc2)cc1OC
0.4%,-22%,-6%,-7,CCCN1C(=O)c2[nH]nc(-c3cc(Cl)c(C)cc3O)c2C1c1ccc(O)c(OC)c1 (stereo not drawn)
-3.9%,x,16%,x,O=C(CN1C(=O)C(=O)N(C2CCCC2)C1=O)NCCc1ccc(F)cc1
0.5%,-1%,0%,-3,CC(C)(C)C(=O)CCN1C(=O)C2(OCCO2)c2ccccc21
-0.9%,1%,0%,-7,O=C(N/N=C/c1cc([N+](=O)[O-])ccc1O)C1CCCCC1
-1.9%,-1%,-8%,-6,OCCNC(=S)Nc1cc(Cl)cc(Cl)c1
0.2%,x,-12%,x,Nc1cc(C(=O)OCC(=O)N2CCN(C(=O)COC(=O)c3ccc(Cl)c(N)c3)CC2)ccc1Cl
-4.5%,-14%,-15%,x,COc1ccc(CC(=O)Nc2cccc3c2CCCC3)cc1
8.2%,-1%,-5%,x,c1ccc(OCC2CCNCC2)nc1
-1.6%,-9%,2%,x,COc1ccc(Cn2c(=O)oc3ccc(C)cc32)cc1
-0.7%,2%,-7%,x,Cc1nnc(CN(C)C(=O)CC2C(=O)NCCN2Cc2ccccc2C)o1 (stereo not drawn)
0.0%,-11%,3%,x,Cc1ccc2cc(CN(CCCO)S(=O)(=O)c3ccccc3F)c(=O)[nH]c2c1C
-5.6%,x,7%,x,CC12CCC(=O)N1C(C(=O)Nc1cc(C(F)(F)F)ccc1N1CCOCC1)CS2 (stereo not drawn)
u,-46%,-6%,-1,N#Cc1ccccc1NC(=O)CSc1nccn1CCc1ccccc1
-0.7%,-3%,-5%,5,CC(C)CCN1CCN(C2CSCCSC2)CC1CCO (stereo not drawn)
-0.4%,0%,-1%,-11,COc1ccccc1NC(=O)CNc1ccc(F)c(Cl)c1
-2.9%,1%,12%,-4,COCC1CCN(Cc2cn(-c3ccccc3F)nc2-c2cc(C)sc2C)CC1
-1.8%,3%,-14%,x,O=C(O)c1ccc(-c2sc(Nc3ccccc3)n[n+]2-c2ccc(F)cc2)cc1
1.7%,-4%,8%,8,O=C(CNC(=O)c1ccc(S(=O)(=O)N2CCCC2)cc1)N/N=C/c1ccc(Cl)cc1
9.2%,u,-17%,-4,CCCCCc1ccc(OCCC[n+]2ccccc2)c(CCCCC)c1
u,-9%,u,5,COC(=O)c1ccc(/C=C/c2ccc3cccc(OC)c3n2)cc1
-1.4%,x,10%,x,CN1C[C@@H]2[C@@H]3C(=O)N(C)C(=O)[C@@H]3[C@](C)(C1=O)N2C(=O)c1ccc(Cl)c(Cl)c1
-1.0%,-33%,1%,5,Cc1cc(N)n(-c2cc(C)c3ccccc3n2)n1
-0.6%,1%,-4%,2,O=C1NC2=C(C(=O)c3ccccc32)C(c2ccccc2)N1 (stereo not drawn)
1.2%,-2%,1%,0,O=C(CCCNS(=O)(=O)c1cccc2nsnc12)NCc1ccc(Cl)cc1
0.0%,-59%,-4%,-9,Cc1ccc(NC(=O)c2cc3c(s2)CCCC3)cc1
-0.7%,u,-2%,-15,C/C(=N\Nc1nc(Cl)c(Cl)cc1Cl)c1ccc(S(=O)(=O)NCc2ccco2)cc1
6.6%,x,0%,x,CCN1C(=O)[C@H]2[C@@H](c3ccc(-c4ccc(OC)cc4)cc3)N[C@@](Cc3ccccc3)(C(=O)OC)[C@H]2C1=O
-0.2%,-37%,-15%,12,O=C(Nc1ccc(Cl)cc1)Nc1cccnc1
-0.2%,-43%,1%,3,O=C(CSc1nc2ccccc2[nH]1)c1c[nH]c2ccccc12
0.8%,1%,32%,x,COc1ccc(OCCC(=O)OCC(=O)NC(=O)NC2CCCCC2)cc1
11%,x,13%,x,O=C(O)c1ccc(NC(C(=O)c2ccccc2)c2ccccc2)cc1 (stereo not drawn)
-3.8%,x,10%,x,O=C(Cn1cc(COc2ccc(Br)cc2)nn1)c1ccc(O)cc1
1.4%,-11%,9%,-18,Cc1nn(-c2ccccc2)nc1CNC(=O)C1CCC1
0.3%,-6%,1%,0,COCCN1Cc2cccc(C(=O)Nc3cc(C)cc(C)c3)c2C1=O
-4.1%,1%,-4%,4,O=C(CSc1c2c(nc3ccccc13)CCC2)N1CCCC1
0.8%,-16%,-15%,1,N#Cc1ccc(-c2cccnc2)nc1SCC(N)=O
0.2%,-10%,9%,x,CC1Oc2ccccc2N(Cc2cccc(F)c2)C1=O (stereo not drawn)
-3.6%,-2%,11%,0,O=C(CCn1c(=S)oc2ccccc21)NC1CCCCCCC1
-2.2%,6%,-6%,x,C=CCN(CC=C)C(=O)C1CCN(S(=O)(=O)c2ccc(-n3cnnn3)cc2)CC1
4.2%,2%,10%,x,COc1cccc(NC(=S)N2C3CCCC2CC(NC(=O)C2CC2)C3)c1 (stereo not drawn)
3.8%,-3%,12%,-10,Cc1ccc2nc(C)c(C(=O)N/N=C/c3cccs3)cc2c1
u,0%,-10%,x,NC(=O)c1ccc(-n2nnnc2SCC(=O)Nc2ccc(F)cc2)cc1
-0.6%,-2%,0%,x,O=C(CSc1nnc(CNC(=O)c2ccc(F)cc2)o1)c1ccccc1
1.0%,x,-13%,x,Cc1nc2c(o1)C(=O)c1ccccc1C2=Nc1ccccc1
3.3%,8%,10%,x,COCCSc1nnc(NC(=O)C2CC(=O)N(CCc3ccc(F)cc3)C2)s1 (stereo not drawn)
0.3%,x,-9%,x,c1cc(N2CCCCC2)nc(N2CCCCC2)n1
-2.4%,3%,u,-2,CCc1cc(C(=O)OC)c(NC(=O)CCC(=O)O)s1

# Ordered by the number under Rango release inh (highest first): some entries from above
smiles,Rango release inh
COc1ccc(OCCC(=O)OCC(=O)NC(=O)NC2CCCCC2)cc1,32%
Cc1ccc2nc(C)c(C(=O)N/N=C/c3cccs3)cc2c1,12%
O=C(CSc1nnc(CNC(=O)c2ccc(F)cc2)o1)c1ccccc1,0%
C/C(=N\Nc1nc(Cl)c(Cl)cc1Cl)c1ccc(S(=O)(=O)NCc2ccco2)cc1,-2%
O=C(CSc1c2c(nc3ccccc13)CCC2)N1CCCC1,-4%
C=CCN(CC=C)C(=O)C1CCN(S(=O)(=O)c2ccc(-n3cnnn3)cc2)CC1,-6%

# (cont.)
Rango complex inh,miR-21 reporter,Rango release inh,GLA inh pH 4.5,Compound
-0.3%,1%,13%,0,O=C(Nc1nc2c(Br)cc(Br)cc2c(=O)s1)c1ccco1
1.8%,-10%,28%,x,COC(=O)c1ccccc1NC(=O)CC(=O)Nc1ccccc1C(=O)OC
4.9%,x,-1%,x,COc1cc(Cl)c(C)cc1NC(=O)CN1C(=O)C2CCCCC2C1=O (stereo not drawn)
-1.1%,4%,-15%,-5,CC(C)(C)/C(O)=C/c1nc2cc(Cl)ccc2oc1=O
0.2%,-16%,51%,6,COc1ccc(NC(=O)Nc2ccc(F)cc2F)c(C)c1
-1.4%,x,-9%,x,C[C@H](CO)N1C[C@H](C)[C@@H](CN(C)S(=O)(=O)c2ccc(F)cc2)Oc2c(NC(=O)Nc3ccc(C(F)(F)F)cc3)cccc2C1=O
-0.4%,-5%,6%,1,CC(NC(=O)c1ccco1)c1ccc2c(c1)OCCO2 (stereo not drawn)
-5.1%,x,-4%,x,O=C(CNC(=O)c1cc(Cl)nc2ccccc12)Nc1ccccc1Br
3.1%,-3%,14%,-25,CCOC(=O)C1=C(CC)OC(N)=C(C#N)C1c1ccc(F)cc1F (stereo not drawn)
-2.6%,-9%,-11%,-8,O=c1[nH]cnc2scc(-c3ccc(F)cc3)c12
-0.6%,-27%&-23%,-14%,-9,COc1ccccc1C(=O)Nc1ccc2c(c1)nc(CN1CCCCC1)n2C
0.4%,-3%,-7%,-6,O=C(NCCCNC(=O)C(F)(F)C(F)F)C(F)(F)C(F)F
5.9%,-2%,10%,-7,O=C1Nc2ccc([N+](=O)[O-])cc2C1=Nc1cccc(CO)c1
-3.5%,-3%,-6%,6,CC(=O)c1cc(OC(=O)c2ccncc2)ccc1OC(=O)c1ccncc1
1.8%,-1%,-1%,x,CCSc1nnc(CCNS(=O)(=O)c2ccc(C(C)=O)cc2)n1C
0.3%,-15%,0%,3,Cc1cccc(C(=O)N/N=C/C(C)Cc2ccc3c(c2)OCO3)c1 (stereo not drawn)
0.8%,4%,5%,1,Cc1nc(CS(=O)(=O)c2ccccn2)sc1C(=O)NNC(=O)c1c(F)cccc1Cl
-3.1%,-5%,12%,-5,CCOC(=O)c1cnn(-c2ccccc2)c1NC(=O)c1cccs1
0.6%,-4%,4%,-6,COC(=O)c1c(N2C(=O)CCC2=O)sc2c1CCCC2
0.0%,-12%,-12%,-3,CCCCNc1cc(C)nc(N2CCOCC2)n1
-0.6%,0%,3%,5,C[C@H](NC(=O)NCc1cccs1)C(=O)O
2.0%,x,10%,x,O=C(NNC(=O)c1ccc(Cl)nc1)c1ccc(Br)cc1
-4.8%,x,4%,x,Cc1ccc(OCC(=O)N(Cc2nnc(-c3ccccc3Cl)o2)C2CC2)cc1C
1.7%,0%,13%,-5,O=C(NCc1ccc(S(=O)(=O)Nc2ccccc2Cl)s1)c1ccccc1
-0.1%,-6%,u,-1,O=C(NC1CCN(Cc2ccccc2)CC1)c1c(F)cccc1F
u,x,u,x,O=C1c2ccccc2/C(=C\c2ccc(Br)s2)N1c1ccccc1
u,-1%&1%,u,-3&2,CN1CCC2(CC1)C1CN(C)CC=C1C(C#N)=C(N)C2(C#N)C#N (stereo not drawn)
-0.2%,25%,-13%,4,CCCC[C@@H]1CN=C(N)N1CCc1cc(C(F)(F)F)cc(C(F)(F)F)c1
u,13%,-12%,x,COc1ccc(NC(=O)c2cc(-c3cc(OC)c(OC)c(OC)c3)nc3ccccc23)cc1OC
-0.2%,-14%,-15%,-3,N#CCc1c(C#N)c(N)nc(N2CCN(S(=O)(=O)c3ccccc3)CC2)c1C#N
0.0%,4%,0%,9,C/C(O)=C(\C#N)c1nc2ccccc2[nH]1
-0.4%,-10%,1%,1,O=C(CSc1nnc2c3ccccc3c3ccccc3c2n1)Nc1ccccc1F
0.7%,2%,-11%,-5,COc1ccc(N(C)S(=O)(=O)c2cccc(C(=O)NCc3ccc4c(c3)OCO4)c2)cc1
-4.7%,-4%,19%,-11&-24,COC(=O)C1=C(C)N(Cc2ccco2)C(=O)N[C@H]1c1cccc(C(F)(F)F)c1
0.3%,-5%,-6%,x,CC(=O)N1CCN(c2ccccc2NC(=S)NC(=O)c2cc3ccccc3o2)CC1
